# Screening results (PubChem)
# GIV Gai3 FP: blocks GIV peptide binding to rat Galpha-i3 | Galpha-i3/FITC-GIV peptide fluorescence polarization, 90 min; active compounds read low; scaled: aluminum fluoride 0%, vehicle 100% | percent of control (FP), % (test concentration not listed) | AID 1224905 | P08753 | 0.42% of 210,000 active;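 active = replicate mean at 85% of control or lower, very high polarization wells dropped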;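 also: lower values mean more displacement of the GIV peptide from Galpha-i3; wells of about 15 µL received 100 nL stock; the first replicate is given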
# Target sequence (P08753 whole entry, looked up): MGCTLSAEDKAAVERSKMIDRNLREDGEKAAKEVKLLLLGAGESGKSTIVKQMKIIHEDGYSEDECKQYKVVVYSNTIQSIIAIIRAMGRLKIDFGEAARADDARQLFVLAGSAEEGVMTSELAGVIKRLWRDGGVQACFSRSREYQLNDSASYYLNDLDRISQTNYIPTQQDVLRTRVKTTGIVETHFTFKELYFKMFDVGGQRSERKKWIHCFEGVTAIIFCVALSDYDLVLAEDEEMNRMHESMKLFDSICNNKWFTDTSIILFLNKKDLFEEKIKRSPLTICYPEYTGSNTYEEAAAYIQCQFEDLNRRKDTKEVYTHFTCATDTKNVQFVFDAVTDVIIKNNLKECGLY
# * = called active by the depositor. An excerpt. The share of hits here may be higher or lower than overall.
GIV Gai3 FP | Molecule
97 | O=C(C1CCC1)N1CCCCC1CCN1CCOCC1 (centres undefined)
112 | COC(=O)c1ccc(C(=O)OC)c(NC(=O)c2cnn3c(C(F)(F)F)cc(-c4ccco4)nc23)c1
103 | Cn1c(NC(=O)C(c2ccccc2)c2ccccc2)cc(=O)n(C)c1=O
100 | CCC(C)NC(=O)c1cc(NS(=O)(=O)c2ccc(Br)cc2)cnc1N1CCNCC1 (centres undefined)
102 | COc1cc(-n2c(C)nc3cc(C(=O)NCC4CCCO4)ccc32)cc(OC)c1OC (centres undefined)
112 | O=C1CSC(c2cc3c(cc2Br)OCO3)N1c1ccc(F)c(Cl)c1 (centres undefined)
114 | COc1ccc2c(c1)c(Sc1ccccc1)c(CC(=O)Nc1ccc(C)cc1)n2C
105 | Clc1ccc(Nc2nc(Cl)nc(N3CCOCC3)n2)nc1
102 | COc1ccc(Cl)cc1NS(=O)(=O)c1c(C)sc(C)c1-c1cc(C)[nH]n1
100 | COc1ccc(OC)c(NS(=O)(=O)c2cc(-c3cnn4c(C)cc(C)nc34)ccc2OC)c1
105 | COCCn1cc(C(=O)CSc2nnc(-c3ccc4c(c3)OCCCO4)n2C)c2ccccc21
101 | C=CCn1c(SCC(=O)c2cccs2)nc2sc(CC)cc2c1=O
96 | CCc1cnc2c(c1SC(C)CC)c(=O)n(C)c(=O)n2C (centres undefined)
111 | CCOC(=O)c1[nH]c(C)c(CCC(=O)Nc2ccsc2C(=O)OC)c1C
108 | CCCc1cc(C2CCCN2Cc2cn[nH]c2-c2ccc(OCC)cc2)no1 (centres undefined)
110 | CCc1ccc(N2C(=O)C3C4c5ccccc5C(c5ccccc54)C3C2=O)cc1 (centres undefined)
113 | CN(C)c1ccc(/C=c2/sc3nc(-c4ccc(Cl)cc4)nn3c2=O)cc1
106 | Cc1ccc(-c2ccc(=O)n(CCc3nc(-c4ccccc4)no3)n2)cc1C
103 | CCc1ccc(S(=O)(=O)c2cnc(N3CCN(c4ccccc4OC)CC3)nc2N)cc1
116 | COc1ccc(N=C2NC(=O)/C(=C\c3ccc(N(C)C)cc3)S2)cc1
114 | Cc1ccc(C23CC4CC(CC(C(=O)NC(C)(C)CO)(C4)C2)C3)cc1
101 | Cc1ccc2c(c1)C(C)(C)C1(/C=C/c3cccnc3)NC(=O)CN21 (centres undefined)
102 | Cc1nn(-c2ccc3nnc(C)n3n2)c2c1C(c1ccc(OCc3ccc(Cl)cc3)cc1)CC(=O)N2 (centres undefined)
107 | CCOc1ccc(N2CC(O)(c3ccc(OC(F)F)cc3)[N+]3=C2CCCC3)cc1 (centres undefined)
103 | CCOC(=O)c1sc(=S)n(-c2ccc(Cl)c(Cl)c2)c1N
104 | CCc1ccc(CN2CCn3c(nnc3C(F)(F)F)C2)o1
102 | CC(C)(NC(=O)C1CCCC1)c1nc2c(c(C(N)=O)n1)OCCO2
96 | O=C1CN(C(=O)NC2CCCCC2)CCN1
102 | COc1ccc(-c2noc(CSc3nc4[nH]ncc4c(=O)n3-c3ccc(F)c(F)c3)n2)cc1OC
103 | Cc1ccc(C)c(S(=O)(=O)N2CCC3(CC2)NCCN=C3NCc2ccccc2F)c1

# Overlap with the part before: 3 compounds, followed by the next part.
GIV Gai3 FP | Molecule
96 | O=C1CN(C(=O)NC2CCCCC2)CCN1
102 | COc1ccc(-c2noc(CSc3nc4[nH]ncc4c(=O)n3-c3ccc(F)c(F)c3)n2)cc1OC
103 | Cc1ccc(C)c(S(=O)(=O)N2CCC3(CC2)NCCN=C3NCc2ccccc2F)c1
119 | O=C(NC1CCS(=O)(=O)C1)c1ccc(Br)cc1 (centres undefined)
122 | O=[N+]([O-])c1cc(S(=O)(=O)N2CCOCC2)cc2c1-c1c(cc(S(=O)(=O)N3CCOCC3)cc1[N+](=O)[O-])C2=NO
106 | Cc1cc(=O)oc2c(C)c3oc(C(=O)c4ccc(Cl)cc4)c(-c4ccccc4)c3cc12
100 | CN(C)CCNC(=O)c1cc2c(n(-c3ccc(F)cc3)c1=O)CCCC2=O
102 | COCCCN1CCc2nc(SCc3c(F)cccc3Cl)[nH]c(=O)c2C1
103 | Cc1ccc2nsnc2c1S(=O)(=O)N1CCN(C23CC4CC(CC(C4)C2)C3)CC1
114 | CS(=O)(=O)n1c(SCc2cccc([N+](=O)[O-])c2)nc2ccccc21
106 | COc1ccc(-c2noc(CSc3nc4cc5c(cc4c(=O)n3CC3CCCO3)OCO5)n2)cc1 (centres undefined)
106 | COc1ccc(-c2oc(/N=C/c3ccc([N+](=O)[O-])cc3)c(C#N)c2-c2ccc(OC)cc2)cc1
106 | N=C1S/C(=C\c2ccc(-c3ccc(F)c(Cl)c3)o2)C(=O)N1c1nccs1
113 | COc1ccc(CNC(=O)CSc2nc3cc(-c4ccccc4)sc3c(=O)n2C)cc1
111 | CCOc1ccc(C2Oc3ccc(Cl)cc3C3CC(c4ccc(OC)cc4)=NN32)cc1 (centres undefined)
114 | COc1ccc2c(c1)-c1c(ssc1=S)C(C)(C)N2C(=O)CN1C(=O)CCC1=O
100 | COCCn1c(CNC(=O)C2CCC2)nc2cccnc21
112 | CN1C2=NC(=O)/C(=C/c3ccc([N+](=O)[O-])s3)N2c2ccccc21
109 | CCN(CC)CCCNC(=O)c1sc2ncnc(N3CCN(c4ccccc4)CC3)c2c1C
106 | O=S1(=O)Nc2ccc(O)c(Cl)c2-c2cc(Cl)ccc21
110 | CN(C1CCCCC1)S(=O)(=O)c1cccc2nsnc12
104 | O=C(CSc1nnc2ccc(-c3ccncc3)nn12)N1CCc2ccccc21
105 | O=C(NC(Cc1ccccc1)C(=O)NCCc1c[nH]c2ccccc12)OCc1ccccc1 (centres undefined)
115 | O=C1/C(=C/c2ccc(-c3cc(Cl)ccc3Cl)o2)C=C(c2ccccc2)N1c1ccccc1O
96 | COc1ccc(S(=O)(=O)N2CCCC2c2c(C)noc2C)cc1OC (centres undefined)
110 | O=c1[nH]c(NCCO)nc2c1C1(CCCCC1)Cc1ccccc1-2
123 | CCN1CC2=C(OC(N)=C(C#N)C2c2ccc(F)cc2)/C(=C/c2ccc(F)cc2)C1 (centres undefined)
106 | CCOC(=O)c1ccc(NC(=O)CSc2nc3ccccc3c(=O)n2CCC(=O)NCc2ccc(F)cc2)cc1
100 | CNC(=O)c1ccc(-c2nc3cc(NS(=O)(=O)c4ccc(F)c(Cl)c4)ccc3n2C)cc1
110 | O=C1CN(Cc2c(F)cccc2Cl)S(=O)(=O)c2ccccc2N1Cc1cccc(F)c1
101 | Cc1nn(-c2nc3ccccc3n2C)c2c1C(c1ccc(C(=O)O)cc1)CC(=O)N2 (centres undefined)
104 | CC(C)c1ccc(C(C2=C(O)CC(C)(C)CC2=O)C2C(=O)CC(C)(C)CC2=O)cc1 (centres undefined)
106 | COc1ccc(/C=C2/c3cc(C)ccc3-c3nc4ccccc4cc32)cc1OC

# 2 of these compounds in a different format.
canonical_smiles,GIV Gai3 FP
COc1ccc2c(c1)c(Sc1ccccc1)c(CC(=O)Nc1ccc(C)cc1)n2C,114
Cc1ccc(-c2ccc(=O)n(CCc3nc(-c4ccccc4)no3)n2)cc1C,106

# More structures:
GIV Gai3 FP | Molecule
105 | CCOC(=O)Nc1ccc2c(c1)N(C(=O)CCN1CCCCC1)c1ccccc1CC2
111 | COc1cc(-c2nc(C=Nc3cccc(C(F)(F)F)c3)c(O)o2)cc(OC)c1OC
111 | Cc1c(C(=O)c2ccc(C(C)(C)C)cc2)sc2nc3ccccc3c(=O)n12
100 | Cc1ccc(-c2cncc(C(=O)Nc3cc(F)cc(F)c3)c2)cc1
101 | O=C(Cn1ncc(N2CCSCC2)c(Cl)c1=O)NCc1cccs1
102 | O=c1c2c3c(sc2nc2n1CCCCC2)CCCCC3
106 | Cc1onc(-c2c(F)cccc2Cl)c1C(=O)N1CCCC1c1cc(C(C)C)on1 (centres undefined)
101 | CC(C)CC(=O)Nc1ccc(S(=O)(=O)N2CCCCC2c2cccnc2)cc1 (centres undefined)
113 | CCc1ccc(S(=O)(=O)Nc2cc3c4c(oc3c3ccccc23)CCCC4=O)cc1
115 | N#CC1=C(N)Oc2c(C=Nc3ccccc3)ccc(O)c2[C@H]1c1ccccc1[N+](=O)[O-]
111 | O=C(CN1C2=NCCN2c2ccccc21)c1ccc(Br)cc1
98 | COc1ccc(OC)c(N2C=C(C#N)S(=O)(=O)c3ccc(F)cc32)c1
97 | NC1CC(=O)N(c2ccc3c(c2)OCO3)C1 (centres undefined)
109 | O=C(Nc1cccc(C(F)(F)F)c1)c1ccc(F)c(S(=O)(=O)N2CCc3ccccc32)c1
108 | COc1ccc(CCNC(=O)CN(c2cc(Cl)ccc2OC)S(=O)(=O)c2ccccc2)cc1OC
109 | O=C(Nc1ccc2c(c1)OCO2)c1cccc(-c2cc(NC3CCCCC3)ncn2)c1
102 | Cn1c(=O)c2c(SCC(=O)NCC3CCCO3)nc(C3CCCC3)nc2n(C)c1=O (centres undefined)
108 | CCCn1c(=O)c2nscc2n(CC(=O)NC(C)CC)c1=O (centres undefined)
101 | O=C1COc2ccc(S(=O)(=O)NC3CCCCC3)cc2N1Cc1noc(C2CC2)n1
113 | COc1ccc(-c2cc(C(F)(F)F)n3ncc(C(=O)Nc4cccc(C(C)=O)c4)c3n2)cc1OC
103 | O=C(NC1CC1)c1ccc2c(c1)OCCCO2
111 | O=C(CSc1nnc2c(n1)-c1cccc3cccc-2c13)Nc1ccccc1[N+](=O)[O-]
105 | O=C(NCc1ccc(Cl)cc1)c1nc(N2CCCC2)c2oc3ccccc3c2n1
99 | COCCNC(=O)Cn1c(-n2nc(C)cc2C)nc2c(c1=O)CCCC2
100 | O=S(=O)(c1cccn2c(SCc3ccccc3F)nnc12)N1CCCCC1
106 | CCc1ccc(-c2cc(C(F)(F)F)on2)cc1S(=O)(=O)N1CCC(C)CC1
109 | COC(=O)c1c(CNC2CCCCC2)n(C)c2cc(Br)c(OC)cc12
108 | COc1ccc(S(=O)(=O)N2C[C@H]3CN(S(=O)(=O)c4ccccc4)C[C@@H](C2)O3)cc1
101 | CCc1nc(-c2ccc(-c3noc(C(C)Oc4ccccc4)n3)cc2)cs1 (centres undefined)
107 | Fc1ccccc1CNc1nc(-c2nnc(-c3ccccc3)o2)nc2ccccc12
109 | Clc1cc2nc3[nH]c4ccccc4c3nc2cc1Cl
117 | CCOc1ccc2c(c1)-c1c(ssc1=S)C(C)(C)N2C(=O)c1ccc(C(F)(F)F)cc1
100 | CCc1onc(C)c1C1CCCN1C(=O)c1cc(C(C)C)no1 (centres undefined)
104 | c1ccc(N2CCN(c3ccc4nnc(CCc5nc(-c6ccncc6)no5)n4n3)CC2)nc1
108 | Cc1ccc(-c2nc(C3CCN(C(=O)c4cccc(Br)c4)CC3)no2)cc1
103 | CCOC(=O)C(NC(=O)c1ccccc1F)(Nc1sc2c(c1C#N)CCCC2)C(F)(F)F (centres undefined)
107 | Cc1cccc(NC2=NC(=S)N(c3ccccc3Cl)C23CCCC3)c1
98 | Cc1ccsc1C1CCCCCN1S(=O)(=O)c1ccc(Cl)s1 (centres undefined)
107 | O=C(NCc1ccccc1)c1cc2n(n1)C(C(F)(F)F)CC(c1ccccc1)N2 (centres undefined)
101 | CC(C)(C)N1C(=O)C2C3CC(=O)C(c4ccccc43)C2C1=O (centres undefined)
108 | CCS(=O)(=O)N1CCN(c2nc(C)nc3ccc(N4CCOCC4)cc23)CC1
104 | CCC(Sc1nc2n[nH]c(C)c2c(=N)n1-c1ccc(Br)cc1)C(=O)NCc1ccco1 (centres undefined)
101 | O=C(NCCc1cscn1)[C@H]1CSCN1C(=O)c1ccccc1Br
116 | CSC1=NC(=Nc2cccc(C)c2)C2(CCCCC2)N1c1cccc(C)c1
101 | CCOC(=O)c1sc2nc(SCC#N)n(Cc3cccs3)c(=O)c2c1C
97 | Cc1ccc(NS(=O)(=O)c2ccc3c(c2)c(=O)n(CC(=O)N2CCCC2)c(=O)n3C)nc1
107 | NS(=O)(=O)c1ccc(CCNC(=O)c2ccc3c(=O)n(Cc4ccc5c(c4)OCO5)c(=S)[nH]c3c2)cc1
107 | CCc1ccc(-c2ccc(-n3nc(C)c(S(=O)(=O)NC4CC4)c3C)nn2)cc1
102 | Brc1ccc(-c2nc(-c3ccccc3)c(-c3ccc(Oc4ccccc4)cc3)[nH]2)cc1
100 | Cc1ccc(-c2n[nH]c3c2C(c2ccccc2[N+](=O)[O-])N(c2ccc(F)cc2)C3=O)cc1 (centres undefined)
108 | CC(C)(C)C1CCc2oc3ccc(NS(=O)(=O)c4ccc5ccccc5c4)cc3c2C1 (centres undefined)
108 | Brc1ccc(-c2nc(-c3ccn4cnnc4c3)no2)cc1
105 | Cn1nc(COCc2ccc(F)cc2Cl)c2c1CCN(C(=O)NC(C)(C)C)C2
107 | O=C(NC1CCCC1)C1CCCN(C(=O)c2ccc(NS(=O)(=O)c3ccccc3)cc2)C1 (centres undefined)
112 | COc1ccc(OC)c(N(CC(=O)NCCc2ccc(OC)c(OC)c2)S(=O)(=O)c2ccccc2)c1
101 | O=C(CS(=O)(=O)c1cccc2nsnc12)Nc1cccnc1
115 | Cc1cc(N2CC(C)OC(C)C2)n2c(nc3ccccc32)c1C#N (centres undefined)
102 | CCOC(=O)C1=C(CSc2nc(C)c(C)c(C)c2C#N)OC(N)=C(C#N)C1c1ccc(Cl)cc1 (centres undefined)
110 | COc1ccc(Cl)cc1S(=O)(=O)Nc1ccc2nnc(C)n2n1
100 | Nc1nc(COc2ccccc2Cl)nc(N2CCCCC2)n1

# By substructure, the entries above with a nitro group on carbon (seven)
GIV Gai3 FP | Molecule
122 | O=[N+]([O-])c1cc(S(=O)(=O)N2CCOCC2)cc2c1-c1c(cc(S(=O)(=O)N3CCOCC3)cc1[N+](=O)[O-])C2=NO
114 | CS(=O)(=O)n1c(SCc2cccc([N+](=O)[O-])c2)nc2ccccc21
106 | COc1ccc(-c2oc(/N=C/c3ccc([N+](=O)[O-])cc3)c(C#N)c2-c2ccc(OC)cc2)cc1
112 | CN1C2=NC(=O)/C(=C/c3ccc([N+](=O)[O-])s3)N2c2ccccc21
115 | N#CC1=C(N)Oc2c(C=Nc3ccccc3)ccc(O)c2[C@H]1c1ccccc1[N+](=O)[O-]
111 | O=C(CSc1nnc2c(n1)-c1cccc3cccc-2c13)Nc1ccccc1[N+](=O)[O-]
100 | Cc1ccc(-c2n[nH]c3c2C(c2ccccc2[N+](=O)[O-])N(c2ccc(F)cc2)C3=O)cc1 (centres undefined)
